# HCMV UL50-53 inh = disrupts HCMV UL50-UL53 complex binding; inhibition, % (test concentration not listed); 190,000 tested, 0.15% active; HTRF UL50-UL53 interaction, normalized percent inhibition;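 active = both replicates at 50% or more, plus weaker picks with an unusually low signal ratio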;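 also: stock transfer was 100 nL into about 20 µL; 0% = negative control wells and 100% = wells with untagged competitor protein; inactives centre near -12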
# GIV-Gai inh = GIV-Galpha-i interaction inhibition | percent of control (FP), % (no concentration beside the values) | Galpha-i3/FITC-GIV peptide fluorescence polarization, 90 min; stronger effect = lower value; scaled: aluminum fluoride 0%, vehicle 100% | 210,000 tested, 0.42% active;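 active = replicate mean at 85% of control or lower, very high polarization wells dropped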;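 also: wells of about 15 µL received 100 nL stock; the first replicate is given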
# Target sequence (P08753 whole entry, looked up): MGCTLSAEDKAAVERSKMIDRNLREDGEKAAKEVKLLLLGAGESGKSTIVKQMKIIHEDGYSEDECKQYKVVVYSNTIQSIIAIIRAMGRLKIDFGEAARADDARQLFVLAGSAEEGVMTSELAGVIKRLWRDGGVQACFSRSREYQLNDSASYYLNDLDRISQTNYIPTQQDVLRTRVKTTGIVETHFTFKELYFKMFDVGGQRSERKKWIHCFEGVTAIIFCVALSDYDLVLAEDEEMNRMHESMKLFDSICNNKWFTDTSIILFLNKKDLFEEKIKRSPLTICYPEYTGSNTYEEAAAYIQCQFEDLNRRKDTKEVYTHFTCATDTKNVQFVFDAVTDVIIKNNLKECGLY
# Sa growth 42C = blocks Staphylococcus aureus growth | 170,000 tested, 0.53% active | relative growth, % (test concentration not listed) | S. aureus RN4220 growth, OD600, 20 h, 42 °C; stronger effect = lower value;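 active = growth at 42 °C up to 50% and 20 or more points under that at 30 °C, or under 10% at both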;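 also: 300 nL library stock went into each well; scaled to the means of positive and negative controls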
# Sa growth 42C second temp = recorded beside Sa growth 42C, whose call it bears; relative growth, %; measured here: growth at 30 °C;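 optical density after 20 h as mean of two plates; 100% = untreated growth and lower means inhibition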
# * marks the source's active call; other numbers are inactive results; . = no result given; & = joins results of further samples. Random draw from the library; any-hit rate near 0.85%.
# Sequence of screens – HCMV UL50-53 inh	GIV-Gai inh	Sa growth 42C	Sa growth 42C second temp
CC1CCCCN1C(=O)COC(=O)c1n[nH]c2ccccc12 (stereo not given)
→ -2	.	102	95
COCC(=O)Nc1nc(-c2ccccc2)cs1
→ 6	99	112	130
N#CC1(NC(=O)COC(=O)C2CCN(C(=O)Nc3ccccc3)CC2)CCCCC1
→ -4	.	94	99
COc1cc(CN(C)C)c(O)c(CN(C)C)c1
→ .	97	109	90
Cc1cc(C)c2oc3nc(N)c(C#N)cc3c(=O)c2c1
→ -21	105	89	88
CN(c1ccc(C(=O)O)cc1)S(C)(=O)=O
→ 9	.	92	96
O=S(=O)(c1ccccc1)c1ccc(N2CCN(c3ccccn3)CC2)nn1
→ -6	99	.	.
C=CCn1c(=S)[nH]c2cc(C(=O)O)ccc2c1=O
→ -4	.	84	94
COc1ccccc1C1CC(c2ccc(Br)cc2)=NN1S(=O)(=O)c1ccccc1 (stereo not given)
→ -15	107	.	.
NC(=O)C1CCN(C(=O)CSCc2cnn(-c3ccccc3)c2-n2cccc2)CC1
→ .	105	97	81

# Continued:
# Sequence of screens – HCMV UL50-53 inh	GIV-Gai inh	Sa growth 42C	Sa growth 42C second temp
Cc1ccccc1NS(=O)(=O)c1cn(C)cn1
→ 4	105	.	.
O=C(O)Cn1cnc2scc(-c3cccs3)c2c1=O
→ -67	.	97	91
O=S(=O)(c1ccc2c(c1)CCCC2)N1CCC(n2cnc3cccnc32)CC1
→ -22	100	.	.
Cc1oc2c(c1C(=O)N1CCCCC1)C(=O)c1ccccc1C2=O
→ 49	99	39	22
CCCn1c(CN2CCOCC2)nc2cc(NC(=O)C3CCCCC3)ccc21
→ 33	109	.	.
O=C(c1cccs1)n1nccc1-c1cccs1
→ 0	109	96	80
Cc1ccc2occ(CC(=O)N(Cc3ccc(Cl)cc3)C3CCS(=O)(=O)C3)c2c1 (stereo not given)
→ -13	107	117	86
O=C1CN(C(=S)NCCN2CCOCC2)c2ccccc2N1
→ -28	.	92	88
O=C(CSCc1cnn(-c2ccccc2)c1-n1cccc1)NCCC1=CCCCC1
→ -16	101	81	78
O=C(CCN1N=C(c2ccccc2)CCC1=O)NCc1ccccc1
→ .	109	83	81

# Record cards, from the list above. Order of screens: HCMV UL50-53 inh | GIV-Gai inh | Sa growth 42C | Sa growth 42C second temp
# Shown for `O=S(=O)(c1ccc2c(c1)CCCC2)N1CCC(n2cnc3cccnc32)CC1` = -22 | 100 | . | .
# Shown for `CCCn1c(CN2CCOCC2)nc2cc(NC(=O)C3CCCCC3)ccc21` = 33 | 109 | . | .

# Just HCMV UL50-53 inh and Sa growth 42C second temp (2 entries from above):
Molecule	HCMV UL50-53 inh	Sa growth 42C second temp
Cc1cc(C)c2oc3nc(N)c(C#N)cc3c(=O)c2c1	-21	88
O=C1CN(C(=S)NCCN2CCOCC2)c2ccccc2N1	-28	88

# (next part)
# Sequence of screens – HCMV UL50-53 inh	GIV-Gai inh	Sa growth 42C	Sa growth 42C second temp
Cc1c(C)n(CC(O)CNC(C)c2ccccc2)c2ccccc12 (stereo not given)
→ -1	99	99	71
CCN(CC)CCNC(=O)C(Cc1ccccc1)N1Cc2ccccc2C1=O (stereo not given)
→ 2	103	.	.
COc1ccc(-c2[nH]c(-c3ccccc3)nc2SCC(=O)Nc2ccc3c(c2)OCO3)cc1
→ -8	97	97	64
CCOC(=O)c1oc2cc(O)cc(O)c2c(=O)c1-c1ccc(OC)c(OC)c1
→ -80	98	102	75
C=CCSc1nc2c(c(=O)n1Cc1ccco1)C1(CCCCC1)Cc1ccccc1-2
→ .	104	121	85
C=CCN(c1ccccc1)S(=O)(=O)c1cccc(C(=O)N2CCN(c3ncccn3)CC2)c1
→ -31	.	90	96
Cc1cc(C)cc(NC(=O)CN(c2cc(C(F)(F)F)ccc2Cl)S(=O)(=O)c2ccccc2)c1
→ -44	104	87	90
CCOC(=O)c1cc(C(C)(C)C)nc(SC)c1C#N
→ -3	99	98	93
O=C(CSc1oc(-c2ccc(F)cc2)nc1S(=O)(=O)c1ccc(Cl)cc1)c1ccccc1
→ -14	103	89	91
CC(C)(C)c1ccc(CSc2nnc(-c3ccco3)n2-c2ccccc2)cc1
→ -3	92	89	91

# Other compounds follow:
# Sequence of screens – HCMV UL50-53 inh	GIV-Gai inh	Sa growth 42C	Sa growth 42C second temp
CCCN1CCN(CCCNC(=O)c2cc3c(Cl)nc4ccccc4c3s2)CC1
→ -33	111	118	88
NC(=O)NC(CC(=O)Nc1cccc(-c2nnc3n2CCCCC3)c1)c1ccccc1Cl (stereo not given)
→ -5	.	84	97
CN(C)C1(CNC(=O)Cc2n[nH]c(=O)c3ccccc23)CCCCC1
→ 3	.	106	98
CC(=O)Nc1nonc1-c1nnc(SCC(=O)N(C)c2ccccc2)n1C
→ -19	96	99	87
NCCSSCCN
→ -20	98	.	.
CN(C)CCCNCc1cccn1C
→ 33*	106	107	89
CNc1nc(Oc2ccc(=O)[nH]n2)nc(N(C)C)n1
→ -7	102	99	90
O=C(Oc1ccc(N(Cc2ccco2)C(=O)Cn2cnc3ccccc3c2=O)cc1)c1ccccc1F
→ -23	102	102	88
O=C(CSc1nnc2ccccn12)Nc1ccc(Br)cc1
→ -26	104	.	.
CCOC(=O)CN1C(=O)c2cccnc2Oc2ccccc21
→ -8	106	104	89

# The results go on:
# Sequence of screens – HCMV UL50-53 inh	GIV-Gai inh	Sa growth 42C	Sa growth 42C second temp
COc1ccccc1NC(=O)CSc1nnc(NC(=O)NC2CCCCC2)s1
→ .	96&101	108	84
CCn1c(=O)cc(SCC(=O)NC2CCCc3ccccc32)c2ccccc21 (stereo not given)
→ .	97	91	92
CCOc1ccccc1CNC(=O)c1cc2c(=O)n(Cc3ccccc3)ccc2nc1C
→ .	108	89	91
COc1cc(OC)cc(-c2nc3ccccc3c(=O)n2OC(=O)c2cc(Cl)ccc2OC)c1
→ 11	103	.	.
COc1cccc(-c2nn(C)c3sc(C(=O)NCc4ccc(OC)cc4OC)cc23)c1
→ -24	103	107	93
CCN(CC)CCn1c(NCc2ccccc2OC)nc2ccccc21
→ 6&-16	101&95	83	75
CCN(CC)S(=O)(=O)c1ccc(C(=O)NCCSc2c(-c3ccc(OC)cc3)[nH]c3ccccc23)cc1
→ 2	108	91	91
Cc1cc(C(=O)N(c2ccccc2)C(C)C2CC2)c(Cl)cc1Cl (stereo not given)
→ -10	104	54	58
O=C(CSc1nc2ccccc2c(=O)n1-c1ccccc1)NCCCN1CCOCC1
→ -16	100	90	84
CCC(=O)N1CCc2cc(S(=O)(=O)CCC(=O)N(C)c3ccc(OC)cc3OC)ccc21
→ -24	100	85	77

# Next records.
# Sequence of screens – HCMV UL50-53 inh	GIV-Gai inh	Sa growth 42C	Sa growth 42C second temp
c1ccc(-c2nnc3sc(C4CC4)nn23)cc1
→ -6	106	.	.
COc1ccc(/C=N/n2cnc3c([nH]c4ccc(OC)cc43)c2=O)cc1
→ .	98	109	78
CCCC(O)c1nc2ccccc2n1CCOc1ccccc1Cl (stereo not given)
→ -14	103	.	.
CC(C)(C)NNC(=S)Nc1cccc(F)c1
→ -13	105	90	76
COc1ccc(C2=NN(C(=O)CCCC(=O)O)C(c3ccc(Cl)cc3)C2)cc1OC (stereo not given)
→ -54	101	.	.
CCc1ccc(NC(=O)N(Cc2c[nH]c3ccccc23)C2CCCC2)cc1
→ .	100	99	93
CC(=O)Nc1ccc(NS(=O)(=O)c2cn(C)cn2)cc1
→ -23	104	95	87
COC(=O)COc1ccc(Br)cc1
→ -12	95	110	86
Cn1c(=O)c2c(C3C(=O)Nc4ccccc43)c(-c3ccc(Br)cc3)[nH]c2n(C)c1=O (stereo not given)
→ -18	106	.	.
CCOc1ccc(/C=N\n2c(C)nnc2C)cc1
→ .	103	101	88

# Other records follow:
SMILES	HCMV UL50-53 inh	GIV-Gai inh	Sa growth 42C	Sa growth 42C second temp
COc1ccccc1CNc1nc2ccccc2c2nc(-c3cccc(C)c3)nn12	8	100	80	78
CCOc1ccccc1NS(=O)(=O)c1c(-c2ccc(C)cc2)csc1C(=O)OC	.	102	86	50
Cc1cc(=O)[nH]c(SCc2nc3ccccc3n2C)n1	-16	98	85	81
COC(=O)c1cc(NC(=O)c2cc3sccc3n2Cc2ccc(Cl)cc2)cc(C(=O)OC)c1	-31	102	94	87
CCN(CC)c1ncc2c(=S)[nH]c(=S)[nH]c2n1	-50	105	95	78
O=C1CCN(c2ccccc2)N1	-17	93	101&78	43&52
Cc1ccc(COC2CN(C(=O)C(C)C)C2)cc1	-14	103	.	.
O=C(NC(=S)c1ccccc1)C1CC1	-84	.	72	81
CCOc1ccc(NC(=O)c2oc3ccccc3c2NC(=O)Cc2cccs2)cc1	-41	106	100	85
CCOC(=O)c1cc2c(=O)n3ccccc3nc2n(C2CCCCC2)c1=NC(=O)c1cccnc1	-68	98	120	100
Cc1nc2nc(SCC(=O)NCc3ccccc3)nn2c(C)c1Cc1ccccc1Cl	6	101	107	101
Cc1nn(CC(=O)NCc2ccc(OC(C)C)cc2)c(=O)c2cc3occc3n12	.	105	107	88
O=C(O)CCSc1nc2ccccc2n1-c1ccccc1	-12	98	103	92
Cc1cc(C)c(NC(=O)C2CC(=O)N(C3CCCC3)C2)c(C)c1 (stereo not given)	-27	.	94	84
COc1ccc(S(=O)(=O)Nc2cccc(-c3ccc(N4CCOCC4)nn3)c2)cc1F	.	103	124	87
Cn1c(=O)[nH]c(=O)c2c1nc(SCC(=O)O)n2CCc1ccccc1	-8	106	.	.
O=C(NCC1OCCc2ccccc21)C(c1ccccc1)c1ccccc1 (stereo not given)	.	101	105	84
Cc1ccc(NC(=O)Cn2nc(C)c3nn(-c4ccc(Cl)cc4)c(C)c3c2=O)cc1C	.	101	91	86
CCOC(=O)c1ccc2ncc(C(=O)OCC)c(Nc3ccc(N(C)C)cc3)c2c1	-27	101	92	85
Cc1nn(-c2cccc(C(F)(F)F)c2)c(Cl)c1/C=N/n1cnnc1	2	.	119	88

# Further compounds:
SMILES	HCMV UL50-53 inh	GIV-Gai inh	Sa growth 42C	Sa growth 42C second temp
CCOC(=O)c1cc2c(=O)n3ccccc3nc2n(C)c1=NC(=O)c1c(-c2ccccc2Cl)noc1C	12	102	95	104
CN(C(=O)c1nn(-c2ccccc2)c(=O)c2ccccc12)C1CCS(=O)(=O)C1 (stereo not given)	-3	.	78	92
COc1ccc(NC(=O)CCCN2C(=O)CCn3nc(-c4cn(C)c5ccccc45)cc32)cc1OC	.	110	89	81
Cc1ccccc1NC(=O)CC(C)C	-15	.	96	87
CCOc1ccc2nc(N3CCCC(C(=O)Nc4ccccc4CC)C3)sc2c1 (stereo not given)	-36	106	121	93
O=C(NCCc1ccccc1)c1ccc(CSc2nc3cccnc3n2Cc2ccccc2)cc1	.	101	105	94
CCCCc1ccc(NC(=O)c2ccc(=O)n(Cc3cccc(C)c3)c2)cc1	.	106	104	89
CN(C)CCN(Cc1ccccc1)S(=O)(=O)c1csc(C(N)=O)c1	.	97	92	91
COc1ccc(C2c3c(n(C)c4ccccc34)C(=O)N2CC(=O)NCc2cccc(OC)c2)cc1 (stereo not given)	-14	100	.	.
Cc1cccc(Nc2ncc3c(n2)CC(C)CC3=O)c1 (stereo not given)	-9	101	106	94
CCCCN1COc2ccc3c4c(oc3c2C1)C(=O)c1ccccc1C4=O	.	106	13	3
Cc1ccc(NC(=O)CSc2nc(-c3ccco3)cc(C(F)(F)F)n2)cc1C	-21	99	86	78
Brc1cccc(-c2nnc3sc(CNCCc4ccccc4)cn23)c1	.	102	112	90
CCNC(=O)c1cc(-c2ccccc2)nc2c1cnn2C(C)C	-13	.	82	90
O=C(c1cc2cc(Br)cc(Br)c2oc1=O)N1CCCCCC1	-22	.	105	77
CCNc1nc(NCC)nc(SCC(=O)c2ccc(OC)cc2)n1	-11	102	.	.
Cc1ccc(C2=NN(C(=O)COC(=O)c3c(-c4ccccc4)noc3C)C(c3ccco3)C2)cc1 (stereo not given)	-9	.	109	87
O=c1oc(-c2ccc(Br)cc2)nc2sc3c(c12)CCC3	4	109	.	.
CCC(=O)N1c2ccc(S(=O)(=O)N(C)Cc3ccccc3)cc2CC1C (stereo not given)	-10	100	93	57
CC1(C)Cc2c(c(N3CCOCC3)nc3sc(-c4ccc(C(=O)NN)o4)c(N)c23)CO1	-115	165	91	65

# Going on with the list:
SMILES	HCMV UL50-53 inh	GIV-Gai inh	Sa growth 42C	Sa growth 42C second temp
COc1ccc(CNC(=O)c2ccc3c(Cl)c4c(nc3c2)CCCC4)c(OC)c1	-9	105	94	91
Cc1nnc(SCc2ccccc2C#N)o1	0	106	106	98
O=C(NCc1cccs1)c1nn(-c2ccccc2Cl)nc1CO	6	102	99	90
OCCNCCSc1nnc(-c2cccs2)o1	0	.	111	95
CC(C)Cn1c(=O)c2sccc2n2c(CCCC(=O)NC3CCCCC3)nnc12	.	98	117	88
CCCN(CCC)C(=O)C(C)Oc1ccccc1 (stereo not given)	-6	103	107	77
CCC1=C(c2ccc(C)cc2)S(=O)(=O)N=C1N1CCC(C(=O)Nc2ccccc2C(=O)OC)CC1	.	102	87	91
CCS(=O)(=O)c1ccc2oc(Nc3cc(C)cc(C)c3)nc2c1	-10	.	100	87
Cc1ccc(S(=O)(=O)N(C)CC(O)Cn2c3ccccc3c3ccccc32)cc1 (stereo not given)	12	115	106	75
Cc1cc(C)cc(NC(=O)CCNS(=O)(=O)c2ccc3[nH]c(=O)ccc3c2)c1	0	105	99	105
CCCN(CCC)CCCNC(=O)C1CCN(S(=O)(=O)CC)CC1	.	97	90	99

# Bioassay records: PubChem BioAssay, ICCB-Longwood Screening Facility, Harvard Medical School
